VCAM-1 up = boosters of cytokine-driven VCAM-1 levels – cell-based, plate reader, pooled HUVEC, TNFa stimulus (AID 455). HUVEC TNFa-induced VCAM-1 immunofluorescence, plate reader; numbers were filed only for top-ranked candidate wells. augmentation, % at 5 µM. 10,000 tested, 0.2% active;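 active means a compound raising TNF-alpha-driven VCAM-1 surface staining, with its hit status upheld on visual or statistical review; inactive means the rest, including hits rejected on review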;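 further: 0% = TNFa with vehicle and 100% = strongest image-checked hit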
26S disassembly = blocks ATP-dependent breakdown of the yeast 26S proteasome; anti-FLAG beads, GFP-proteasome disassembly, flow cytometry; inhibition of disassembly, % (concentration not given with the values); 24,000 tested, 0.2% active;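 active means above 40%; inconclusive means likely self-fluorescent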;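 further: plate controls were ATP control with full disassembly for no effect and ATP-gamma-S intact proteasomes for full effect; higher percent means more bead fluorescence retained so stronger block of disassembly; stock transfer was 100 nL into about 10 µL; wells with too few beads may also be inconclusive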
An asterisk follows results filed as active; i = inactive; ? = inconclusive; · = no result given.

molecule | VCAM-1 up | 26S disassembly
COc1ccc2[nH]c(=O)c(CN(C(=O)c3ccncc3)C(C)C)cc2c1 | i | 0.2
Cc1cc2ccccc2n1CCNC(=O)c1ccccc1 | · | 4.5
CCc1ccccc1NC(=O)c1nnn(CC(=O)Nc2ccccc2C)c1N | · | -0.2
CC(NC(=O)COc1ccc(Br)cc1)C(=O)O (stereo not given) | i | -2.9
Cc1ccc(-n2ncc(C(=O)O)c2C2CCN(C(=O)OC(C)(C)C)CC2)cc1 | · | -1.4
CCN1CCN(CCCNC(=O)c2cn(CCOC)c(=O)c3c2c2ccccc2n3C)CC1 | i | -1.6
CCN(CC)CCN1C(=O)C(O)=C(C(=O)c2cccs2)C1c1ccc(C)o1 (stereo not given) | i | 1.7
COc1ccc(CNC(=O)c2cnc3n(c2=O)CCS3)cc1 | i | 0.1
COc1ccc(CC(NC(C)=O)C(=O)NC2CCN(C(=O)Nc3ccc(C#N)cc3)CC2)cc1OC (stereo not given) | i | 1.6
CC(=O)Nc1ccccc1O | i | 0.1
CCCCC(CC)C(=O)Nc1ccccc1C#N (stereo not given) | i | -2.2
CC1CN(c2nc3ccccn3c(=O)c2/C=C(\C#N)S(=O)(=O)c2ccccc2)CC(C)O1 (stereo not given) | i | 4.2
C=CCNC(=O)c1ccccc1Cl | · | -1.2
COc1ccc(Cl)cc1C(=O)n1nc(C)cc1C | i | -1.7
N#Cc1ccc(COC(=O)Cn2nnc(-c3ccccc3)n2)cc1 | i | -1.1
CN1CCN(C(=O)c2cnn3c(C(F)F)cc(C4CC4)nc23)CC1 | i | -1.1
Cc1nn(C)c(C)c1S(=O)(=O)N1CCCC(C(=O)N2CCN(c3ccccc3)CC2)C1 (stereo not given) | · | -1.4
CC1CC(C)CN(S(=O)(=O)c2cccc3cccnc23)C1 (stereo not given) | · | 0.0
COc1ccccc1S(=O)(=O)Cc1ccc(C(=O)N2CCOCC2)o1 | i | 0.7
CCCCNC(=O)c1ccc2nc(-c3ccco3)c(-c3ccco3)nc2c1 | · | 1.2
CCOc1ccc(CNC(=O)C2CCC(=O)N2C2CCCC2)cc1OC (stereo not given) | · | 0.8
O=c1c2cnn(-c3ccccc3)c2ncn1Cc1cccnc1 | · | 3.5
Cn1c(SCC(=O)N2CCCCCC2)nc2c([nH]c3ccccc32)c1=O | · | -0.2
c1ccc(Cn2nnc3c(N4CCOCC4)ncnc32)cc1 | · | -0.5
CC1(C)Cc2c(sc3c2c(=N)n(Cc2ccco2)c(=O)n3Cc2ccccc2)CO1 | i | 1.5
Cc1ccc(-c2nc3ccccc3[nH]2)s1 | i | -0.8
Cc1[nH]c(C)c(C(=O)O)c1CNC1CCCCC1C (stereo not given) | · | 2.2
CN1CCN(C(=O)CN(Cc2ccc(Cl)cc2)S(C)(=O)=O)CC1 | i | -2.9
O=C(NC1CC1)C1CCN(c2ccc(S(=O)(=O)N3CCOCC3)cc2)CC1 | i | 1.8
CCCCC(CC)CNC(=O)CCS(=O)(=O)c1cccc2nonc12 (stereo not given) | · | -0.5
CSc1nnc2n(-c3ccc(C)cc3)c(=O)c3c4c(sc3n12)COC(C(C)C)C4 (stereo not given) | · | -1.6
CCn1c(=O)cc(OCC(=O)N(C)C2CCCCC2)c2ccccc21 | · | -2.3
COc1ccc(OC)c(-c2cc(C(=O)NCc3ccco3)no2)c1 | · | -0.8
O=c1c2cn[nH]c2[nH]c(=S)n1-c1ccccc1F | · | -2.4
CC(C)NC(=O)CCNC(=O)c1ccc(F)cc1 | · | -2.5
CC(=O)C1=C(O)C(=O)N(Cc2cccnc2)C1c1ccccc1 (stereo not given) | i | 0.3
Cc1cc(C)nc(NS(=O)(=O)c2ccc(NC(=O)Cn3c(=O)oc4ccccc43)cc2)n1 | i | -0.5
COc1ccc(CNC(=O)Cn2cc3c(n2)CCCCC3)cc1 | · | -0.5
CCc1ccc(NC(=O)CSc2nnc(Cc3cccn3C)n2-c2ccc(F)cc2)cc1 | · | 1.2
CCOC(=O)N1CCN(C(=O)Cn2c(C)cc3ccccc3c2=O)CC1 | · | -0.1
Nc1ccc(Nc2ccccc2N)cc1 | · | ?
CCCSc1nnc(Cn2c(=O)sc3ccccc32)n1C | · | -0.4
O=C(CNS(=O)(=O)c1ccc(Br)s1)N1CCCC1 | i | -2.6
Cc1ccc2c(c1)sc1ncc(NC(=O)c3ccccc3)c(=O)n12 | i | -2.6
Cc1ccc(NC(=O)CCC(=O)OCCCC(F)(F)C(F)(F)F)cc1 | · | -1.7
Cc1nnc(Nc2ccccn2)c2ccccc12 | i | 1.3
O=C(CC(NS(=O)(=O)c1ccc(Cl)cc1)c1ccco1)NC1CCCC1 (stereo not given) | · | 0.7
CCC1=C/C(=C\c2ccc3c(c2)OCO3)C(=O)S1 | · | 11.1
Cc1ccc2nsnc2c1N(S(C)(=O)=O)S(C)(=O)=O | · | 0.2
CC(C)(C)n1ncc2c(=O)n(CC(=O)Nc3ccc4c(c3)OCCO4)cnc21 | · | 1.5
CCC(C)NC(=O)c1cn(C)c(=O)c2cc(OC)c(OC)cc12 (stereo not given) | · | -1.7
Cc1nc2ccccc2c2oc(C(=O)NCCCN3CCCC3=O)cc12 | i | -2.7
Cc1cc2ccccc2c(=O)n1CC(=O)Nc1ccc2c(c1)OCCO2 | · | 1.9
COc1ccccc1NC(=O)C1CCCN(S(=O)(=O)c2cccc3nsnc23)C1 (stereo not given) | · | 0.0
CN(CC(CC(=O)Nc1nncs1)c1ccccc1)S(=O)(=O)c1ccccc1 (stereo not given) | · | 0.4
COCCNC(=O)CCCCCNS(=O)(=O)c1ccc(C)cc1 | · | 0.2
CCOC(=O)c1ccc(NCc2ccc(N(C)C)cc2)cc1 | · | -0.8
CC1CCN(C(=O)CSc2nc3ccccc3[nH]2)CC1 | i | 0.6
CN(C(=O)COc1cc(=O)n(C)c2ccccc12)c1ccc(Cl)cc1 | · | 1.1
Cc1cc(C(=O)CSc2nc3ccccc3n2CCC#N)c(C)n1Cc1cccs1 | i | ?

The results go on.
molecule | VCAM-1 up | 26S disassembly
CCOC(=O)c1c(C)n(C)c2ccc(O)c(S(=O)(=O)c3ccccc3)c12 | i | 0.1
O=C(COc1ccccc1)Nc1ccc(-c2nnc(-c3ccco3)o2)cc1 | i | -0.8
CCC(=O)N1CCc2cc(S(=O)(=O)NC(CC(C)C)C(=O)N3CCc4ccccc43)ccc21 (stereo not given) | · | 0.8
CC(C)(C)c1cc(NC(=O)c2cc(F)c(F)c(F)c2F)no1 | i | 1.8
COc1ccc(C)cc1NC(=O)CCN1CCCC1 | i | 0.8
CC(C)CCNC(=O)C1C2C=CC3(CN(Cc4ccccc4Cl)C(=O)C13)O2 (stereo not given) | · | 1.0
O=C(CSc1ccc2nnc(-c3ccccc3)n2n1)N1CCN(c2ccccc2)CC1 | i | -2.1
CCCN1CCN(CCCNC(=O)CN2C(=O)COc3ccccc32)CC1 | · | -1.5
O=C(Nc1c2c(nn1-c1ccc(F)cc1)CS(=O)(=O)C2)C12CC3CC(CC(C3)C1)C2 | · | -1.5
CN1Cc2c(N)cccc2C(c2ccccc2)C1 (stereo not given) | i | 0.6
CCOc1cc2[nH]c(=S)n(CCCC(=O)NCc3ccco3)c(=O)c2cc1OCC | · | 0.8
CCOc1ccc(-c2noc(=O)[nH]2)cc1 | · | -1.4
CC(=O)N1CCc2cc(Br)cc(S(=O)(=O)N3CCN(c4ccccn4)CC3)c21 | · | -0.9
COc1ccc(C)cc1C(=O)CCC(=O)Nc1ccccc1N1CCOCC1 | i | -0.8
CC(=O)c1nc2ccccc2n1S(=O)(=O)c1ccc(C)cc1 | · | 2.2

Compounds shown so far that contain a furan ring, fused or not:
molecule | VCAM-1 up | 26S disassembly
CCN(CC)CCN1C(=O)C(O)=C(C(=O)c2cccs2)C1c1ccc(C)o1 (stereo not given) | i | 1.7
COc1ccccc1S(=O)(=O)Cc1ccc(C(=O)N2CCOCC2)o1 | i | 0.7
CCCCNC(=O)c1ccc2nc(-c3ccco3)c(-c3ccco3)nc2c1 | · | 1.2
CC1(C)Cc2c(sc3c2c(=N)n(Cc2ccco2)c(=O)n3Cc2ccccc2)CO1 | i | 1.5
COc1ccc(OC)c(-c2cc(C(=O)NCc3ccco3)no2)c1 | · | -0.8
O=C(CC(NS(=O)(=O)c1ccc(Cl)cc1)c1ccco1)NC1CCCC1 (stereo not given) | · | 0.7
Cc1nc2ccccc2c2oc(C(=O)NCCCN3CCCC3=O)cc12 | i | -2.7
O=C(COc1ccccc1)Nc1ccc(-c2nnc(-c3ccco3)o2)cc1 | i | -0.8
CCOc1cc2[nH]c(=S)n(CCCC(=O)NCc3ccco3)c(=O)c2cc1OCC | · | 0.8

(cont.)
SMILES,VCAM-1 up,26S disassembly
COc1ccc(C)cc1Nc1cc(C)nc2nc(C)nn12,·,0.9
CCN1CCN(CCNC(=O)C2CCN(Cc3nc(-c4ccc(Cl)cc4)oc3C)CC2)CC1,·,-0.3
COc1cccc(N2C(=O)C(O)=C(C(C)=O)C2c2ccc(OC)c(OC)c2)c1 (stereo not given),i,1.0
Cc1nc2c(-c3ccc(F)cc3)c(C)nn2c(C)c1CCC(=O)N1CCN(c2ccccn2)CC1,·,-1.1
COc1ccc(-c2nc3n(n2)C(c2ccccc2)C2=C(CCCC2=O)N3)cc1OC (stereo not given),·,0.0
O=c1[nH]c(SCc2ccccc2Cl)nc2c1CCCC2,i,-1.8
CCCn1c(C)cc(=O)c2cc(NC(=O)c3ccccn3)ccc21,·,2.6
O=c1c2cc(N3CCOCC3)ccc2[nH]c(=S)n1CCCN1CCCCC1,i,2.4
CCc1cc(-c2[nH]ncc2-c2ccc3c(c2)OCO3)c(O)cc1O,22.0,3.9
CCOC(=O)CCCCC(=O)c1[nH]c(=O)[nH]c1CSc1nc2ccccc2[nH]1,·,0.0
CCc1nnc(NC(=O)CSc2nnc3scc(-c4ccc(C)cc4)n23)s1,i,-5.1
COCCNc1cc(C)nc2ccccc12,·,1.2
CC(=O)NC(Cc1ccc(C)cc1)C(=O)NC1CCN(C(=O)c2cnccn2)CC1 (stereo not given),i,-3.5
CN1C(=O)CSc2ccc(NC(=O)N3CCN(c4ccccn4)CC3)cc21,i,1.6
COc1ccc(S(=O)(=O)N2CCCC(C(=O)N3CCCCCC3)C2)cc1 (stereo not given),i,-0.4
COc1ccc(C2N(c3ccc(F)cc3)C(=O)C3CCCN32)cc1 (stereo not given),·,-4.0
O=C(O)c1ccccc1C(=O)NCc1ccc(F)cc1,·,-0.9
COc1ccccc1C(=O)NC(C)C(c1cccs1)N1CCOCC1 (stereo not given),·,-1.0
COCc1cc(C)nc(SCC(=O)NCc2ccco2)c1C#N,·,0.8
O=C(COc1ccccc1Br)c1ccc(O)cc1O,·,1.1
CSC1=N/C(=C\C=C\c2cccs2)C(=O)S1,i,-2.0
O=C(OCC#CCSc1nc2ccccc2o1)c1ccco1,i,0.1
O=C(Cn1c(=O)oc2ccccc21)NCc1ccco1,·,-1.2
O=C(NCCOC(=O)C1COc2ccccc2O1)C1COc2ccccc2O1 (stereo not given),i,-2.2
CCOC(=O)N1CCC(NC(=O)CSCc2nc(-c3sccc3C)oc2C)CC1,·,16.7
Cc1cc(NC(=O)CCn2c(=O)sc3ccccc32)no1,·,0.2
Cc1cc(=O)n2nc(N3CCCC(C(=O)N4CCN(c5ccccc5)CC4)C3)sc2n1 (stereo not given),·,0.9
CCc1nc(SCC(=O)Nc2cc(C)on2)n[nH]1,·,-0.4
Cn1c(=O)cc(SCC(=O)NCCCN2CCN(c3ccc(F)cc3)CC2)c2ccccc21,·,1.6
CCCCOC(=O)Nc1ccc(S(=O)(=O)Nc2cc(C)nc(C)n2)cc1,·,-0.4
CCOC(=O)c1ccc(NC(=O)CSc2nnc(Cn3c(=O)sc4ccccc43)n2C)cc1,·,1.5
CCCN(CCC)CCNC(=O)C(NS(=O)(=O)c1ccc2c(c1)CCC(=O)N2)c1ccccc1 (stereo not given),i,0.1
CCOC(=O)Nc1cccc(Cl)c1C,·,0.8
COc1ccc(N(CC(=O)NCc2cccc(OC)c2)S(=O)(=O)c2c(C)noc2C)cc1,·,-0.1
COC(=O)C(C)Sc1nc2c(c(=O)n1-c1ccccc1)SCC2 (stereo not given),i,-1.1
Cc1oc(-c2ccccc2)cc1C(N)=O,i,0.1
Cc1n[nH]c(C)c1S(=O)(=O)NCCc1ccc(Cl)cc1,·,0.8
O=C(COc1nsnc1N1CCOCC1)N1CCOCC1,·,-0.4
CCn1cc(C2=NOC(C(=O)Nc3ccccc3C(=O)OC)C2)c(C)n1 (stereo not given),·,1.6
COc1ccc(OC)c2c1CC(C)(C)NC2=O,·,-0.2
CCOC(=O)c1cccc(NC(=O)CSc2nc3cccnc3n2C)c1,i,-0.7
COc1ccc(CNC(=O)C2CC(c3cccc(OC)c3)=NO2)cc1 (stereo not given),·,-0.9
O=C(CSc1nnc(-c2ccccc2F)o1)OCc1ccccc1,i,-0.4
O=C(CN1CCN(c2ccccc2F)CC1)Nc1ccccc1F,·,3.6
Cc1ccc(NC(=O)CSc2nc3c(c(=O)[nH]2)CCC3)cc1C,·,-1.1
COc1ccc(C(c2nnnn2C2CCCC2)N2CCN(C3CCCC3)CC2)cc1OC (stereo not given),i,0.9
Nc1nonc1-c1noc(-c2ccccc2Br)n1,i,-0.1
Cc1nc(C)c(C(=O)C2=C(O)C(=O)N(CCCn3ccnc3)C2c2ccccc2)s1 (stereo not given),i,0.3
CC(=O)c1cccc(NC(=O)c2ccc(NS(=O)(=O)c3c(C)noc3C)cc2)c1,·,-0.6

This is a subset (hit frequency here may not be typical).
